Vif A3G = inhibitors of Vif binding to APOBEC3G peptide, primary screen, biochemical, TR-FRET, GST-Vif 1-94, biotin-A3G peptide, dose response retest (AID 1117319); 260,000 tested, 0.57% active; TR-FRET GST-Vif / biotin-A3G peptide binding; higher % means a stronger effect; test concentration not given here; strong numbers were not always called active; inhibition, %; hits with a dose series show IC50 in µM;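 active = above the screen mean plus three standard deviations and confirmed in dose response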;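 also: Vif residues 1-94 fused to GST binding biotinylated APOBEC3G peptide 110-148; 0% = full assay without inhibitor and 100% = GST in place of GST-Vif; retest series ran down from 100 µM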
FGF22 binding = shifts melting point of recombinant human FGF22 | Q9HCT0 | 340,000 tested, 1.5% active | calls only at 9.99 µM | recombinant FGF22 thermal shift, SYPRO orange fluorescence; percent of sucrose octasulfate shift, DMSO zero;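 active = melting point raised past a set limit in the mean and every replicate; three in four hits are not shown here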
HNF4A DNA FP = change in binding of human HNF4 alpha to DNA; 360,000 tested, 0.3% active; activity change, % at 10 µM; HNF4a-FITC DNA binding, fluorescence polarization, 1 h; P41235; in the data active = activity change above about 30%, passing the limit was not always enough;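 also: controls were the assay level and a saturating level of protein; the project sought stronger binding though the title names inhibitors; some compounds called inactive have numbers as strong as hits; positive values seem to mean higher polarization but the record does not say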
Target sequence (P41235 whole entry, looked up): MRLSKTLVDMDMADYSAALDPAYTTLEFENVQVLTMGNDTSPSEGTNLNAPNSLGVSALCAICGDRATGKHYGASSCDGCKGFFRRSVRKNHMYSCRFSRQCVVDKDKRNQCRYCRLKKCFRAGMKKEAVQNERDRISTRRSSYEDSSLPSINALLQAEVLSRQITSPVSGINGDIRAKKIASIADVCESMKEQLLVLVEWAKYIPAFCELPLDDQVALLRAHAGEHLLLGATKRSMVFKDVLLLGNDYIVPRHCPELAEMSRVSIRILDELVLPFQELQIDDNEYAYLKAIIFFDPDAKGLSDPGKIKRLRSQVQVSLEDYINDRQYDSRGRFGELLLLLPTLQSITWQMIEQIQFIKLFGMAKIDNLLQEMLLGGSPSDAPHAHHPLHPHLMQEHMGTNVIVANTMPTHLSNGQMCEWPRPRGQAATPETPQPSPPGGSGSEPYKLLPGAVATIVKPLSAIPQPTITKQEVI
ALR inh = inhibitors of human sulfhydryl oxidase ALR. P55789. purified ALR, DTT oxidation, H2O2 HRP-luminol luminescence. inhibition, % (test concentration not listed). 290,000 tested, 3.8% active. AID 485317;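 active = mean and each replicate at 75% or more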;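 also: stock transfer was 7.5 nL into about 7.5 µL; 0% = neutral wells and 100% = wells with inactivated enzyme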
rRNA inh HTS = selective bacterial rRNA inhibition in E. coli; GFP signal change (wild-type ribosome), % (concentration not given with the values); AID 720706; 350,000 tested, 1.6% active; E. coli WT GFP vs humanized-ribosome RFP mutants, fluorescence, 24 h; stronger effect = lower value; DMSO median 0, no signal -100;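 active = significant combined selectivity score with lowered wild-type GFP, culture density cut under 30%, mutant RFP and density less affected; inactive = any of these conditions unmet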; also: one replicate is shown; some compounds called inactive have numbers as strong as hits
AF4-AF9 inh = inhibitors of human MLL-AF4/AF9 interaction | 350,000 tested, 0.47% active | inhibition, % at 10 µM | P42568 | AlphaScreen, biotin-AF4 peptide binding to FLAG-AF9;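 active = every replicate reaching a set inhibition limit, whatever the replicate mean, cut at about 25% in these data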;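 also: 0% = plate neutral control median and 100% = total signal loss; the record names both 10 and 1 µM as test concentration; the first replicate is given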
Target sequence (P42568 whole entry, looked up): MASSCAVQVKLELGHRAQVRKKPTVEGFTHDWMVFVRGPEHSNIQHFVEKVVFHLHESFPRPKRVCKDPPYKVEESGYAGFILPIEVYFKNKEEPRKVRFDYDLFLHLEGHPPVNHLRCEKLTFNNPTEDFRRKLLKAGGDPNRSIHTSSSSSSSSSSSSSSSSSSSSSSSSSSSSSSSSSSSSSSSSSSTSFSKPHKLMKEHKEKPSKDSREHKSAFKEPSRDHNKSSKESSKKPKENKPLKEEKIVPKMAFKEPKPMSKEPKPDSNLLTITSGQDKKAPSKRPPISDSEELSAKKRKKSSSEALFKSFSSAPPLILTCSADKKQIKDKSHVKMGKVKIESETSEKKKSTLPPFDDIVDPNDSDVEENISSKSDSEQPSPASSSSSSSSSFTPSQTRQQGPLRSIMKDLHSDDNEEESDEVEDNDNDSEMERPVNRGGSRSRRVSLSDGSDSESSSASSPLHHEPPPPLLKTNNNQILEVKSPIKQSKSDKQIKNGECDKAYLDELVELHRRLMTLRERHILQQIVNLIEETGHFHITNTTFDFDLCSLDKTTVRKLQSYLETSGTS
E coli growth = blocks Escherichia coli growth; OD600, 23 h; stronger effect = lower value; 330,000 tested, 0.21% active; OD600 absorbance (test concentration not listed);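 active = OD600 absorbance below the run mean of sample wells minus 3.6 SD, in any replicate, cut at about 0.56 in these data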;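 also: stock transfer was 300 nL into about 60 µL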
rRNA inh HTS OD600 = recorded beside rRNA inh HTS, whose call it bears; OD600 change, %; measured here: OD600 growth;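 optical density of the mix in the first replicate; 0 = DMSO median and -100 = no signal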
rRNA inh HTS RFP = further read-out of rRNA inh HTS, marked with its call; RFP signal change, %; measured here: RFP humanized mutant strains;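 first replicate; 0 = DMSO median and -100 = no signal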
* = called active by the depositor; i = inactive; . = no result given; + = active, no number.

No.	SMILES	rRNA inh HTS	ALR inh	rRNA inh HTS RFP	E coli growth	HNF4A DNA FP	rRNA inh HTS OD600	FGF22 binding	Vif A3G	AF4-AF9 inh
1	Cc1ccc2nc(SCC(=O)N3CCN(c4ccccc4)CC3)nc(=O)n2c1	3	.	-1.2	0.68	6.2	3	i	-4%	-1.3
2	C[C@H](CO)N1C[C@H](C)[C@H](CN(C)CC2CCCCC2)Oc2c(NS(=O)(=O)c3ccc(F)cc3)cccc2C1=O	-1	.	-1.5	.	.	3	i	.	-1.9
3	O=C(Nc1cccc([N+](=O)[O-])c1)c1ccc(N2CCCC2=O)cc1	20	-6	3.9	0.69	-1.3	12	i	6%	-1.2
4	O=C(CCNC(=O)c1ccc([N+](=O)[O-])cc1)Nc1cccc(S(=O)(=O)N2CCCCCC2)c1	-16	-1	3.1	0.66	-0.9	-6	i	-9%	6.4
5	Cc1ccc2c(c1)nnn2C1CCN(S(=O)(=O)c2ccc(C(=O)N(C)C3CCCCC3)cc2)CC1	.	-10	.	0.69	0.7	.	.	1%	.
6	S=C(NC1CCCC1)N1CCOCC1	3	.	4.4	0.66	2.7	11	i	29%	-4.5
7	C[C@@H](CO)NC(=O)c1[nH]cnc1C(=O)Nc1ccc(CNC(=O)OC(C)(C)C)cc1	-3	.	-0.8	.	1.9	3	i	.	-1.1
8	c1ccc(Nc2nc(N3CCCC3)nc(N3CCCC3)n2)cc1	.	-3	.	0.65	1.0	.	i	7%	5.7
9	CCCC(=O)NC(C)c1nc(-c2ccc(C)cc2)no1 (centres undefined)	.	-1	.	0.68	-0.1	.	.	.	.
10	CN(C)S(=O)(=O)N1CCCC(C(=O)c2ccc(-c3ccccc3)c(F)c2)C1 (centres undefined)	-20	-4	-4.2	0.67	-2.1	-21	i	-8%	-4.1
11	O=C(C[C@H]1C[C@@H]2c3cc(NC(=O)CC4CC4)ccc3O[C@@H]2[C@H](CO)O1)NCc1ccc(-c2ccccc2)cc1	-6	.	3.2	.	.	-2	i	.	-1.1
12	CCC1=NNC(=O)C(CC(=O)Nc2ccccc2)c2cc(OC)c(OC)cc21 (centres undefined)	.	3	.	0.73	-4.7	.	.	33%	.
13	CNc1nnc(-c2ccncc2)s1	26	-4	0.1	0.68	0.5	14	.	7%	.
14	COCC(=O)NC[C@@H]1[C@@H](c2ccccc2)[C@@H](CO)N1C(C)=O	1	.	-2.6	.	.	4	i	.	1.1
15	C[C@H](CO)N1C[C@H](C)[C@H](CN(C)Cc2ccc(Oc3ccccc3)cc2)Oc2ccc(NS(=O)(=O)c3ccc(Cl)cc3)cc2CC1=O	2	.	-1.1	.	.	17	i	.	1.1

Next part:
No.	SMILES	rRNA inh HTS	ALR inh	rRNA inh HTS RFP	E coli growth	HNF4A DNA FP	rRNA inh HTS OD600	FGF22 binding	Vif A3G	AF4-AF9 inh
16	Cc1ccc(NC(=O)c2ccc(Cl)c(S(=O)(=O)N3CCc4ccccc43)c2)nc1	-3	.	1.2	0.68	3.1	-8	i	-5%	-10.0
17	COc1ccccc1NC(=O)CN1C(=O)CC(C)S(=O)(=O)c2ccccc21 (centres undefined)	7	-7	-2.9	0.69	0.2	3	i	.	-0.9
18	CC(C)(C)NS(=O)(=O)NC(=O)C1=C(N2CCCC2)COC1=O	11	3	3.2	0.76	0.3	20	i	.	0.7
19	O=C(C[C@H]1CC[C@H]2[C@@H](COC[C@H](O)CN2Cc2ccccc2)O1)NCCc1ccccc1	0	.	-2.0	.	.	0	+	.	1.4
20	Cc1ccc(C)c(NC(=O)c2c(Cl)nc3ccccn23)c1	4	-7	-3.1	0.66	4.2	6	i	-5%	0.6
21	CC(C)N1CCC(N2CCN(Cc3cccnc3)CC2CCO)CC1 (centres undefined)	8	.	-2.8	0.68	-1.6	7	i	1%	0.5
22	O=C(Cn1cccc1C(=O)c1ccccc1)NCc1cccs1	.	.	.	0.69	-1.0	.	.	1%	.
23	CC(C#N)Sc1ncnc2sc(-c3ccccc3)cc12 (centres undefined)	-20	1	1.0	0.69	-0.7	-21	i	-23%	-1.1
24	CCOc1ccc(CCNC(=O)c2ccc(C)c(N3CCCC3=O)c2)cc1OCC	3	-2	3.7	0.73	0.8	0	i	.	-1.9
25	COc1ccc(N(CC(=O)N2CCc3ccccc3C2)S(=O)(=O)c2ccccc2)cc1	-38	-2	-6.5	0.72	-0.6	-47	i	18%	2.3
26	Cn1cc(S(=O)(=O)N2CCCC2)cc1C(=O)N1CCN(c2ccccc2)CC1	-9	25	-19	0.65	2.2	-5	i	.	-0.4
27	Cc1nc2ccccn2c1/C(O)=C1\C(=O)C(=O)N(CCN(C)C)C1c1cccnc1 (centres undefined)	.	-22	.	.	-2.8	.	.	0%	.
28	Cc1nc(-c2nnc(-c3ccccc3)o2)c(C(F)(F)F)o1	2	-11	-1.0	0.68	-2.6	-2	i	4%	0.9
29	Cc1noc(C)c1NC(=O)Nc1ccc2c(c1)C(=O)N([C@@H](C)CO)C[C@H](C)[C@@H](CN(C)C(=O)NC1CCCCC1)OCCCC[C@H](C)O2	-4	.	3.2	.	.	-5	i	.	-0.5
30	CCOC(=O)c1ccccc1NC(=O)C1CCCO1 (centres undefined)	2	-9	0.7	0.67	3.1	5	i	.	-2.7

(list continues)
No.	SMILES	rRNA inh HTS	ALR inh	rRNA inh HTS RFP	E coli growth	HNF4A DNA FP	rRNA inh HTS OD600	FGF22 binding	Vif A3G	AF4-AF9 inh
31	Cc1cc(C)n(-c2nc(Nc3ccccc3C(F)(F)F)nc(-n3nc(C)cc3C)n2)n1	.	-3	.	0.72	1.6	.	.	84%	.
32	CC(=O)c1ccc([C@H]2C[C@@]34CN(C(=O)OC(C)(C)C)S(=O)(=O)[C@H]3C[C@H]2O4)cc1	8	-4	-3.3	.	-1.8	8	i	7%	-0.1
33	Cc1noc(C)c1C(=O)OCC(=O)Nc1cccc(S(=O)(=O)N(C)C)c1	.	2	.	0.7	0.4	.	.	.	.
34	CCOC(=O)N1CCN(C(=O)C(NC(=O)C2CCC(C)CC2)C(C)C)CC1 (centres undefined)	.	-9	.	0.7	-4.6	.	.	19%	.
35	CC(C)COC(=O)n1c(SCC(N)=O)nc2ccccc21	-10	-7	-0.1	0.68	-1.0	-1	i	.	-0.1
36	COC(=O)c1cccc(NS(=O)(=O)c2ccc(OC)cc2)c1C	.	-24	.	0.76	-0.7	.	.	2%	.
37	CSc1nc2ccc(NC(=O)COc3ccccc3F)cc2s1	-2	1	-0.6	0.63	-1.3	-1	i	.	-0.8
38	C[C@@H]1CN([C@H](C)CO)C(=O)c2cc(C#CCc3ccccc3)cnc2O[C@@H]1CN(C)C(=O)Cc1cccnc1	0	.	1.1	.	.	0	i	.	-20
39	COCC(=O)N1[C@H](CO)[C@H]2c3ccccc3N(C(=O)c3cccc(OC)c3)C[C@H]21	2	.	-1.1	.	.	8	i	.	-15
40	COc1ccc(F)cc1S(=O)(=O)Nc1cc2c3c(c1)CC(=O)N3CCC2	5	-4	2.0	0.62	0.9	2	i	39%	-18
41	Cc1cc(/C=N/NC(=O)c2cccc(F)c2)c(C)n1-c1ccccc1	13	-1	2.0	.	-3.2	12	i	2%	3.8
42	Cc1ccc(NC(=O)COC(=O)CC2CCCC2)cc1Cl	.	1	.	0.66	1.3	.	.	-3%	.
43	COc1ccccc1N(CC(=O)Nc1ccc2c(c1)OCCO2)S(=O)(=O)c1ccc(C)cc1	-6	.	8.0	0.7	2.8	-7	i	-7%	-0.4
44	O=C(Nc1nnc(-c2ccco2)o1)c1ccc(N2C(=O)CCC2=O)cc1	11	-8	-0.5	0.7	-5.2	10	i	12%	-0.6
45	COc1ccccc1/C=C(\NC(=O)c1ccc(OC)c(OC)c1)C(=O)Nc1cccc([N+](=O)[O-])c1	15	0	0.9	0.73	-2.7	16	i	.	0.1

Some of these compounds in order of length of the SMILES, highest first.
No.	SMILES	rRNA inh HTS	ALR inh	rRNA inh HTS RFP	E coli growth	HNF4A DNA FP	rRNA inh HTS OD600	FGF22 binding	Vif A3G	AF4-AF9 inh
39	COCC(=O)N1[C@H](CO)[C@H]2c3ccccc3N(C(=O)c3cccc(OC)c3)C[C@H]21	2	.	-1.1	.	.	8	i	.	-15
40	COc1ccc(F)cc1S(=O)(=O)Nc1cc2c3c(c1)CC(=O)N3CCC2	5	-4	2.0	0.62	0.9	2	i	39%	-18
36	COC(=O)c1cccc(NS(=O)(=O)c2ccc(OC)cc2)c1C	.	-24	.	0.76	-0.7	.	.	2%	.
35	CC(C)COC(=O)n1c(SCC(N)=O)nc2ccccc21	-10	-7	-0.1	0.68	-1.0	-1	i	.	-0.1

Later entries:
No.	SMILES	rRNA inh HTS	ALR inh	rRNA inh HTS RFP	E coli growth	HNF4A DNA FP	rRNA inh HTS OD600	FGF22 binding	Vif A3G	AF4-AF9 inh
46	CCCCCCCCNC(=O)/C(C#N)=C/c1ccc(SC)cc1	-3	-1	3.1	0.71	-1.7	-2	i	-3%	-6.4
47	CCOc1cc(/C=C/C(=O)NCCc2ccc(S(N)(=O)=O)cc2)ccc1OCC(C)C	-4	.	3.2	0.67	-0.9	-1	i	.	-0.8
48	Cc1ccc2c(c1)c1c3n2CCN(C(=O)CCl)C3CCC1 (centres undefined)	8	-9	5.5	.	-1.8	7	i	.	11
49	CNC(=O)/C=C/c1cc(C(=O)c2ccc(Cl)cc2Cl)cn1C	-12	.	-2.0	0.68	0.7	-8	i	-6%	-13
50	Cc1cc(/C=N/NC(N)=S)c(O)c(/C=N/NC(N)=S)c1	30	.	-0.9	.	-109	-8	i	12%	-2.1
51	COCC#Cc1cnc2c(c1)C(=O)N([C@@H](C)CO)C[C@@H](C)[C@@H](CN(C)S(C)(=O)=O)O2	-2	.	-2.2	.	.	-3	i	.	-12
52	CCOc1ccccc1N1CCN(C(=O)C2CSC3(C)CCC(=O)N23)CC1 (centres undefined)	5	.	4.1	0.66	2.9	-14	i	12%	3.0
53	CN1CCN(C(=O)C[C@@H]2CC[C@H]3[C@@H](COC[C@H](O)CN3Cc3ccc4c(c3)OCO4)O2)CC1	0	.	2.7	.	.	6	i	.	-1.1
54	CC(=O)Nc1cccc(-c2ccnc3c2CC(C)(C(=O)NCCC(F)(F)F)O3)c1 (centres undefined)	-7	.	-10	.	-3.5	-30	i	.	-1.2
55	CSCCC(NC(=O)COc1ccccc1)C(=O)NCCOc1ccccc1 (centres undefined)	1	.	-0.4	0.66	-0.5	1	i	-1%	2.8
56	COCCSc1nnc(NC(=O)C2CCN(C(=O)c3ccco3)CC2)s1	14	-2	0.4	0.69	-0.6	17	i	.	0.8
57	CC(C)C(=O)N1CCN(c2ccccc2NC(=O)Cc2ccc(Cl)cc2)CC1	.	-3	.	0.7	-0.9	.	.	-2%	.
58	Cc1ccc(S(=O)(=O)Nc2cc(C(=O)NCCN(C)C)ccc2N2CCCC2)cc1	3	48	0.7	0.64	3.1	7	i	.	10
59	Cc1ccccc1N(CC(N)=O)S(C)(=O)=O	.	0	.	0.7	-0.3	.	.	31%	.

The list is partial, so the mix of outcomes need not match the whole.
